# TRPML1 blocker: qHTS for Inhibitors of the Human Mucolipin Transient Receptor Potential 1 (TRPML1). 0.02% of 390,000 active. activity change, negative = inhibition, % (concentration not given with the values). TRPML1-inducible cells, Ca2+ dye fluorescence, FDSS; hits give low values; inhibition of EC80 agonist-evoked calcium signal. Mucolipin-1 (Homo sapiens), Q9GZU1. AID 624415, 2012; in the data active means activity change below about -50%; inconclusive means about -30% to -50%; inactive means above about -30%;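 note: stimulus is agonist 54-4 at its EC80 concentration; % is set by controls: 0 for no effect and ±100 for the full control effect; compound concentration not given in the record; the text of the record puts the active cut at -80%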
# Target sequence (Q9GZU1 whole entry, looked up): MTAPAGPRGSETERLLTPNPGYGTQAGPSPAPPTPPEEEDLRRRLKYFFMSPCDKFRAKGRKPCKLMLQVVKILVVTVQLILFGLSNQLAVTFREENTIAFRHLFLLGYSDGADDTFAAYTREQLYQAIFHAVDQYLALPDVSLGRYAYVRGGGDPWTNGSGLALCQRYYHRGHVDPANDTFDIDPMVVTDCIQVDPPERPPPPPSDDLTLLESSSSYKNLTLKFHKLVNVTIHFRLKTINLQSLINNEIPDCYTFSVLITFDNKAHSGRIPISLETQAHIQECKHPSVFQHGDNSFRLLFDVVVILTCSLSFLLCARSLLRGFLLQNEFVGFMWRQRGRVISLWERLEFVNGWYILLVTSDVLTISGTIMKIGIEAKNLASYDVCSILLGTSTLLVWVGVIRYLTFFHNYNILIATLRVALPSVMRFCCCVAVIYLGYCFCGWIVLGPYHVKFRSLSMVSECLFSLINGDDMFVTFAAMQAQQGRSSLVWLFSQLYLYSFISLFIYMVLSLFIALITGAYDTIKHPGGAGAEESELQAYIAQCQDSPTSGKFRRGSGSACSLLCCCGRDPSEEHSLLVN
#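 Calcium fluorescence in TRPML1-DL cells induced overnight with Tet: a 110 s read after compound pin addition, then a 110 s antagonist read after challenge with 54-4 at 4 uM final (EC80).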
# gsp antag: qHTS for Antagonists of gsp, the Etiologic Mutation Responsible for Fibrous Dysplasia/McCune-Albright Syndrome: qHTS; gsp-mutant cells, cAMP HTRF, 30 min; control for the full effect not named in the record; Potency, µM (series often up to 76.9 µM), for the others: at the top dose activity change, negative = inhibition, hits mostly inhibitors; 0.4% of 340,000 active; AID 624288, 2012; active = falling curve of any shape with a large fitted effect; inconclusive = falling curve, mostly with a smaller effect; inactive = flat or rising curve; cell line not stated here;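 note: intracellular cAMP measured with PDE inhibitor Ro 20-1724 present during compound exposure; potency is the fitted concentration of half-maximal effect; % is set by controls: 0 for no effect and ±100 for the full control effect; nearly all actives have a fitted effect of over 65% in size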
#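 HTRF cAMP read-out (cAMP-d2 plus anti-cAMP antibody-K in lysis buffer, 30 min RT). Before lysis, cells are exposed to compounds with […] for 30 min at 37C in DPBS containing Ca/Mg, BSA and Tween 20.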
# Sfp PPTase inh: qHTS Assay for Inhibitors of Bacillus subtilis Sfp phosphopantetheinyl transferase (PPTase) | Biochemical Sfp PPTase activity, qHTS | AID 1490, 2009 | Potency, µM, for inactives: max response, negative = inhibition, usual class: inhibitors | 3.5% of 310,000 active; active = well fitted inhibition curve with a large enough effect; inconclusive = small, poorly fitted or top-dose-only effect, or another doubt; inactive = no such curve, though single readings can be large or run the other way;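 note: the enzyme is Sfp with the accession as filed and its product quenches rhodamine fluorescence; potency is the fitted concentration of half-maximal effect; 0% = enzyme reaction without inhibitor and -100% = no enzyme wells; top concentration of the series not given in the record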
#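 Step 1, compound plus 15 nM Sfp-PPTase, 15 min, room temperature. Step 2, add rhodamine-CoA (5 uM) and BHQ-2-YbbR (12.5 uM). Step 3, read 525/598 nm fluorescence at 0 and 30 min.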
# ClpP mod: qHTS Assay for Activators of ClpP; purified B. subtilis ClpP, FRET peptide cleavage, 20 min; 1.9% of 340,000 active; Potency, µM (top dose mostly 57.5 µM), for inactives: at the top dose activity change, negative = active; active = well fitted falling curve with a large enough effect; inconclusive = small, poorly fitted or top-dose-only effect; inactive = no such curve, though single readings can be large or run the other way; note: potency is the fitted concentration of half-maximal effect; the source files actives as falling curves though it sought activators and does not explain the sign; nearly all actives have a fitted effect of over 65% in size; many hits overshoot -100%
# Target sequence (P80244 whole entry, looked up): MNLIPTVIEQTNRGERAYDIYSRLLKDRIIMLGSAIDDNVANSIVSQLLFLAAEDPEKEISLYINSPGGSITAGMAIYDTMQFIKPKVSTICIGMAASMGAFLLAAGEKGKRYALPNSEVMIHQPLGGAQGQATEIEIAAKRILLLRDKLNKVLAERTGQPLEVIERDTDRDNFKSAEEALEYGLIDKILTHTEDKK
#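 FRET quenching reversal measured ClpP activation: 10 microg/mL B. subtilis ClpP at pH 8 with the FRET-FV decapeptide, read at 430 nm after 320 nm excitation. The 20-min minus 0-min signal was scaled between DMSO/no-enzyme wells and ADEP (5.8 microM final).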
# Menin MLL FP FL: qHTS Assay for Inhibitors Targeting the Menin-MLL Interaction in MLL Related Leukemias: Competition With Fluorescein Labeled MLL-derived Peptide; Fluorescence polarization, fluorescein-MLL peptide displacement from menin; FP activity change, % at 61.4 µM; 290,000 tested, under 10 active; AID 1766, 2009; inconclusive = falling polarisation curve, or a change in total fluorescence; inactive = total fluorescence flat and polarisation flat or rising; no compound was filed as active; the % refers to the polarisation; negative = inhibition;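 note: % of control where 0% means no effect; inhibitors lower the polarisation; unlabelled MLL peptide was the positive control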
# gsp ag: qHTS for Agonist of gsp, the Etiologic Mutation Responsible for Fibrous Dysplasia/McCune-Albright Syndrome: qHTS; gsp mutant cells, cAMP HTRF, 30 min; control for the full effect not named in the record; Potency, µM (highest dose often 76.9 µM), for the others: at the top dose activation (cAMP increase), usual class: activators; 0.13% of 340,000 active; active = well fitted activation curve with a large enough effect; inconclusive = small, poorly fitted or top-dose-only effect, or another doubt; inactive = no such curve, though single readings can be large or run the other way; cell line not stated here;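 note: phosphodiesterase inhibitor Ro 20-1724 added with compounds to block cAMP breakdown; potency is the fitted concentration of half-maximal effect; nearly all actives have a fitted effect of over 60% in size; about a fifth of the inactives were tested at one dose only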
#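 Cells in DMEM/10% FBS with G418 were pretreated with compounds in DMSO plus […] (300 uM stock) for 30 min at 37C. cAMP was measured by HTRF (cAMP-d2 plus anti-cAMP antibody-K) after 30 min at room temperature.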
# TRPV1 PAM: HTS Assay for Compounds that Act as Potentiators of the Vanilloid Receptor 1; Transient receptor potential cation channel subfamily V member 1 (Homo sapiens), Q8NER1; TRPV1-expressing cells, Fluo-8 calcium influx, capsaicin EC20 potentiation; host cell line not named in the record; control for the full effect not named in the record; potentiation, % at 8.33 µM; 0.02% of 320,000 active; AID 540277, 2011; active means potentiation above 80%; inconclusive means 30% to 80%; inactive means below 30%; note: 0% is about no effect
#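 TRPV1-expressing cells were cultured overnight at 35.5C and loaded with Fluo-8 calcium dye for 40 to 90 min at room temperature. After a 10 s baseline, compound was added and calcium influx was read kinetically for 3 min (ex 480/em 520 nm).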
# * hit, by the source's call; ? = inconclusive; / = not tested or not shown; [ ] = dose if it differs, or a comment.
SMILES,TRPML1 blocker,gsp antag,Sfp PPTase inh,ClpP mod,Menin MLL FP FL,gsp ag,TRPV1 PAM
Cc1ccc(S(=O)(=O)NCCC(=O)N2CCC(Cc3ccccc3)CC2)cc1,11,-1%,/,1.0%,/,-11%[15.4 µM],-15
COc1ccc(C/C(N)=N/OC(=O)CCc2ccccc2)cc1,12,0%,8%,/,-1.3,-4%[15.4 µM],9
O=S(=O)(c1ccc(F)cc1)c1nc(-c2ccco2)oc1Nc1ccc(F)cc1,36,-21%,-2%,-23%,0.7,-1%,-16
Cc1nc(NS(=O)(=O)c2ccc(Cl)s2)c2c3c(sc2n1)CCCC3,14,?,23%,-20%,8.5,-17%,1
CCCCCCCC[n+]1cccc(C(=O)N(CC)CC)c1,-14,63%[activator],6%,1.2%,9.4,-8%,-5
COc1cc(NC(=S)NCCC(c2ccccc2)c2ccccc2)c(OC)cc1Cl,-3,-12%,?,-3.3%,4.1,-2%,-1
O=C1CCCc2ccccc2N1Cc1ccc(Cl)cc1Cl,-4,-9%,5%,-1.8%,0.4,-3%,3
Cc1cc(C(=O)Nc2cccc(O)c2)c(C)o1,2,11%,-19%,1.8%,1.9,4%,-7
O=C(O)C1CCCN(C(=O)NCc2ccccc2)C1 (stereo not given),0,5%,7%,3.0%,5.8,2%,5
CC(C(=O)Nc1nc2ccccc2[nH]1)N1C(=O)C2CC=CCC2C1=O (stereo not given),-3,7%,-13%,-2.3%,2.3,-10%,7
COc1ccccc1N(CC(=O)Nc1ccccc1C(=O)N1CCCC1)S(C)(=O)=O,-14,1%,27%,/,0.4,-2%[15.4 µM],9
CCn1cc(CN2CCCC(CNS(=O)(=O)Cc3ccccc3)C2)cn1 (stereo not given),1,-8%,15%,-0.9%,-0.7,-8%,-5
COc1ccc(CC(=O)Nc2ccc(N3CCOCC3)cc2)cc1OC,-12,-3%,7%,-1.7%,-2.2,-1%,4
CC[n+]1ccc(/C=C/c2ccc(N(C)C)cc2)c2ccccc21,1,?,?,1.4%,8.2,-144%[inhibitor],-5
Cc1cccc(Nc2nc(-c3ccc4c(c3)OCCO4)cs2)c1,21,7%,-12%,-2.0%,2.9,20%,1
C=CCSc1nc2c(C(=O)OCC)nnn2c2ccccc12,-4,-2%,-13%,/,-14,?,-5
Cc1c(Cl)c([N+](=O)[O-])nn1CCCC(=O)Nc1cc(Cl)ccc1Cl,-11,-16%,-12%,1.2%,-0.1,-2%,-10
Cc1ccn2c(=O)nc(SCC(=O)NC3CCCCC3)nc2c1,23,8%,/,-20%,/,-3%,8
COC(=O)c1nc(N)sc1C,8,0%,-7%,/,-2.8,7%[15.4 µM],-1
Cc1ccc(-c2csc3ncnc(SCC(=O)NCc4ccc5c(c4)OCO5)c23)cc1,29,3%,-14%,-18%,8.1,21%,7
CCC(C)(C)NC(=O)CN(CC1CCCO1)C(=O)CNS(=O)(=O)c1ccccc1 (stereo not given),15,6%,14%,/,/,6%[15.4 µM],3
CC(Sc1nc(N(C)C)nc(N2CCOCC2)n1)C(=O)Nc1ccccc1 (stereo not given),9,-28%,8%,1.6%,-3.0,11%,-18
CCC(C(=O)NC1CCCCCC1)c1ccccc1 (stereo not given),8,1%,/,-0.4%,/,-2%,/
CCc1noc(C)c1C(=O)Nc1ccccc1N1CCOCC1,-11,3%,/,?,/,-2%[15.4 µM],2
COc1cccc(OCCn2cc(C(=O)c3ccco3)c3ccccc32)c1,34,-16%,5%,-8.5%,2.2,-17%,28
# The list goes on:
SMILES,TRPML1 blocker,gsp antag,Sfp PPTase inh,ClpP mod,Menin MLL FP FL,gsp ag,TRPV1 PAM
CCOC(=O)c1[nH]c(C)c(C(=O)N2CCN(c3cccc(Cl)c3)CC2)c1C,10,-18%,11%,-0.2%,0.8,-10%,-10
CCCCN(C(=O)c1ccc(S(=O)(=O)N2CCOCC2)cc1)C1CCS(=O)(=O)C1 (stereo not given),-16,16%,/,0.4%,/,-85%[inhibitor],7
Cc1cc(CNC(=O)c2ccc3c(c2)OCO3)c2ccccc2n1,-16,-5%,1%,8.1%,0.5,?,9
O=C(NC(Cc1c[nH]c2ccccc12)C(=O)O)c1cccc(S(=O)(=O)N2CCCCC2)c1 (stereo not given),-2,/,/,-0.9%,/,-48%[inhibitor],/
COC(=O)c1ccccc1NC(=O)c1cnn2cccnc12,3,1%,8%,/,0.7,-7%,-3
CCOC(=O)/C=C1\SCC(=O)N1CC(=O)NC12CC3CC(CC(C3)C1)C2,85,-11%,9%,0.1%,1.4,0%,-11
O=C(O)c1cc(OCc2ccccc2)cc(OCc2ccccc2)c1,24,-23%,16%,/,7.7,-3%,16
O=C(NC1CCCCC1)C1Cc2ccccc2CN1S(=O)(=O)c1ccc(F)cc1 (stereo not given),-6,-5%,-1%,-0.1%,-2.2,-26%,-6
CCCOC(=O)CSc1nnc(-c2cc(OC)c(OC)c(OC)c2)o1,0,-3%,25%,-1.7%,0.7,4%,1
CC(C)NC(=O)N(C)C[C@H]1OCc2cnnn2CCCC(=O)N([C@H](C)CO)C[C@H]1C,-8,/,/,1.6%,/,6%,/
Cc1ccc(NC(=O)Cc2ncc(C(F)(F)F)cc2Cl)cc1Cl,-7,2%,7%,-3.8%,3.0,?,-8
Cc1ccc(NC(=O)CN(C)C(=O)CSc2ncc(C(F)(F)F)cc2Cl)cc1,-11,13%,20%,1.0%,4.1,-45%[inhibitor],6
O=C(CNC(=O)OCc1ccccc1)NC1CCCCCCC1,-17,3%,-13%,2.3%,4.1,6%,-6
CCOC(=O)c1cc(-c2ccco2)nn1-c1ccc(C)cc1,-3,-22%,?,/,6.7,2%[15.4 µM],2
CN(C)c1ccc(/C=N/Nc2cccc(C(=O)O)c2)cc1,23,4%,-30%,-4.9%,4.5,2%,-3
COC(=O)C1=C(C)N(Cc2ccco2)C(=O)N[C@@H]1c1ccccc1,2,5%,-20%,-3.3%,2.4,/,11
COc1cc(NC(=O)COc2ccccc2)c(OC)cc1NC(C)=O,-4,/,11%,/,0.2,23%[15.4 µM],-4
CNC[C@@H](C)NC[C@@H](Cc1ccccc1)NCCc1ccccc1,18,8%,38%[activator],-3.5%,2.5,/,13
Cc1cnc(NC(=O)CCNC(=O)c2ccc([N+](=O)[O-])cc2)s1,-4,20%,15%,-0.8%,0.0,12%,3
CCOc1ccc(N2CC(C(=O)Nc3ccc4c(c3)OCCO4)CC2=O)cc1 (stereo not given),1,-1%,1%,/,/,13%[15.4 µM],-18
COc1ccc(C(CNC(=O)c2cc3ccccc3o2)N2CCCCC2)cc1 (stereo not given),-4,3%,14%,/,-3.7,-1%[15.4 µM],-7
CCn1c(SCc2nc(N)nc(N3CCCCC3)n2)nc2c1c(=O)n(C)c(=O)n2C,-13,8%,13%,-1.6%,4.5,1%[15.4 µM],3
COc1ccc(C(=O)CNc2ccccc2C#N)cc1,-12,3%,10%,/,1.0,-3%[15.4 µM],-15
CN(C)c1ccc(C(=S)N2CCN(C(=S)Nc3cccc4ccccc34)CC2)cc1,17,2%,6%,-2.9%,3.5,2%[15.4 µM],16
Cc1ccc(C(=O)N2CCCC(CCC(=O)N3CCN(c4ccccn4)CC3)C2)s1 (stereo not given),-5,-2%,14%,?,-4.1,-24%,-9
Cc1ccc(CNC(=O)COc2ccccc2-c2ccccc2)cc1,-9,-10%,-54%,0.4%,3.8,2%,-9
CN1CCCN(C(=O)CC2(CC(=O)O)CCCC2)CC1,-6,12%,-9%,/,0.1,-22%,-2

# Gathered by group, the entries above with an aryl methoxy group.
SMILES,TRPML1 blocker,gsp antag,Sfp PPTase inh,ClpP mod,Menin MLL FP FL,gsp ag,TRPV1 PAM
COc1ccc(C/C(N)=N/OC(=O)CCc2ccccc2)cc1,12,0%,8%,/,-1.3,-4%[15.4 µM],9
COc1cc(NC(=S)NCCC(c2ccccc2)c2ccccc2)c(OC)cc1Cl,-3,-12%,?,-3.3%,4.1,-2%,-1
COc1ccccc1N(CC(=O)Nc1ccccc1C(=O)N1CCCC1)S(C)(=O)=O,-14,1%,27%,/,0.4,-2%[15.4 µM],9
COc1ccc(CC(=O)Nc2ccc(N3CCOCC3)cc2)cc1OC,-12,-3%,7%,-1.7%,-2.2,-1%,4
COc1cccc(OCCn2cc(C(=O)c3ccco3)c3ccccc32)c1,34,-16%,5%,-8.5%,2.2,-17%,28
CCCOC(=O)CSc1nnc(-c2cc(OC)c(OC)c(OC)c2)o1,0,-3%,25%,-1.7%,0.7,4%,1
COc1cc(NC(=O)COc2ccccc2)c(OC)cc1NC(C)=O,-4,/,11%,/,0.2,23%[15.4 µM],-4
COc1ccc(C(CNC(=O)c2cc3ccccc3o2)N2CCCCC2)cc1 (stereo not given),-4,3%,14%,/,-3.7,-1%[15.4 µM],-7
COc1ccc(C(=O)CNc2ccccc2C#N)cc1,-12,3%,10%,/,1.0,-3%[15.4 µM],-15
